Bioassay records from PubChem BioAssay.
NPYLR7 ag = mosquito NPYLR7 agonism; 0.15% of 270,000 active; HEK293T NPYLR7/Galpha15, GCaMP6s calcium fluorescence; activation, % at 10 µM; in the data active means activation above about 40%;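 further: 0% = vehicle and 100% = reference agonist at the receptor; some compounds past the cut are filed as inactive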
NPYLR7 ag max-min = recorded beside NPYLR7 ag, whose call it bears; activation, %; measured here: Max-Min RFU normalised activation; some inactives read as strong as hits;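 span of the calcium signal over five minutes; 0% = vehicle and 100% = native peptide agonist; compound fluorescence can raise it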
* marks the source's active call; other numbers are inactive results; & = joins results of further samples.

SMILES	NPYLR7 ag	NPYLR7 ag max-min
CC[C@H](C)C(=O)NCCCOc1cccc([N+](=O)[O-])c1	-2.2	-10.7
CCCN(C(=O)Cc1coc2cc(C)ccc12)C1CCS(=O)(=O)C1 (centres undefined)	13.7	12.1
Cc1cc(C)n(C2CCN(C(=O)c3ccc4c(c3)CCO4)CC2)n1	18.2	11.4
COc1ccc(S(=O)(=O)CCC(=O)N(CCN(C)C)c2nc3c(Cl)cccc3s2)cc1	10.1	4.6
Cc1nc2c(c(N3CCOCC3)n1)CN(C(=O)Nc1cccc(C#N)c1)CC2	16.6	19.6
NCCn1cc(C(=O)N2C[C@@H]3[C@@H]4CC[C@@H](C4)[C@@H]3C2)nn1	4.5	3.0
Cc1nc(-c2ccc(Cl)cc2)c(N)c(N2CCSCC2)n1	15.8	7.0
COc1ccc(/C=C/C(=O)N2CCC(n3c(=O)oc4ccc(C(C)(C)C)cc43)CC2)c(Cl)c1OC	4.4	1.1
COc1ccc(C)cc1Nc1nc(C)cc(C)c1C#N	0.8	0.3
CC(C)OC(=O)C1=C(N)N2C(=O)CSC2=C(C(=O)OC(C)C)C1	17.6	6.8
O=c1c2nn(Cc3cccc(F)c3)c(=O)n2ccn1-c1ccc(Br)cc1	3.2	1.1
CCN(Cc1cccc(C)n1)Cc1nc(COC)no1	-1.2	-0.6
CC(=O)N1N=C(c2ccncc2)OC1C(=O)N(C)CCNC(=O)C(F)(F)F (centres undefined)	11.3	3.9
c1ccc(CN2CCC(Nc3nncc(-c4cc5ccccc5o4)n3)C2)cc1 (centres undefined)	8.5	6.3
CCOC(=O)c1ccc(OCC(=O)N2CCCC(C(N)=O)C2)cc1 (centres undefined)	11.2	8.5
C=C1CCC2C(CC2(C)C)C(=O)CCC1O (centres undefined)	-4.9	-10.0
O=C(c1ccccc1Br)N1CCN(c2cc(Oc3ccccc3F)ncn2)CC1	10.4	7.0
COc1ccc(NC2CCCN(c3cnc4ccccc4n3)C2)cc1 (centres undefined)	8.7	19.3
CS(=O)(=O)Oc1ccc(/C=C2/C(=N)N3N=C(C4CCCCC4)SC3=NC2=O)cc1	-1.0	-1.6
COc1ccc(Br)cc1-c1nnc2n(C)c3c(=O)n(C)c(=O)n(C)c3n12	6.0	1.6
c1cnc(SCc2nc(-c3cccs3)no2)nc1	0.0	6.7
O=C1c2ccccc2NC2(CCN(S(=O)(=O)c3cccs3)CC2)N1c1cccnc1	-0.2	15.1
Cc1ccc2nc(SCc3ccc(C(F)(F)F)cc3)nc(=O)n2c1	1.1	0.0
Cc1nccn1-c1ccc(NC(=O)C2CCCN(Cc3ccc4nonc4c3)C2)cc1 (centres undefined)	0.4&-6.1	-6.8&-6.4
COCCN(CC1CCCN(C2Cc3ccccc3C2)C1)C(=O)c1ccncc1 (centres undefined)	3.7	0.5
Cn1c(=O)c2c(nc(N3CCOCC3)n2CCSc2ncccn2)n(C)c1=O	-4.1	-5.4
Cc1cc(C(=O)Nc2nnc(-c3ccno3)o2)no1	4.0	0.2
CCOC(=O)c1nn(-c2ccccc2)c(=O)cc1OCC(=O)Nc1cc(OC)cc(OC)c1	6.1	2.6
Cc1c(C(=O)N2CC3CCC2C3)sc2ncnc(NCc3ccc4c(c3)OCO4)c12 (centres undefined)	33.9	21.5
CS(=O)(=O)NCCNCC(=O)Nc1ccc(Cl)cc1F	32.7	22.6
FC(F)(F)c1nc(Nc2cccc(-n3cnnn3)c2)c2ccccc2n1	5.0	11.5
CCCn1c(O)c(N=NC(=O)c2ccc(Br)cc2)c2ccccc21	-10.5	-17.5
CCc1nc2c(OCC(=O)c3ccc(F)cc3)cccn2c1N(C)C(=O)c1ccc(OC)cc1	0.5	-6.3
Cc1cnc(NC(=O)c2cccc(CN3CCNC(=O)C3CCO)c2)s1 (centres undefined)	6.8	7.1
COc1nc(-c2cccs2)n(-c2ccc(NC(=O)c3ccccc3F)cc2)n1	19.4	27.2
Cc1[nH]c2c(c1C(=O)N1CCCC3(CN(C)C(=O)O3)C1)C(=O)CCC2 (centres undefined)	2.9	1.0
c1ccc(CCN2CCC(NCc3ccccc3Cn3cccn3)C2)cc1 (centres undefined)	-3.5	-7.0
O=C(c1cccc2ccccc12)N1CCN(C2=NS(=O)(=O)c3ccccc32)CC1	5.0	4.8
Cc1ccc(C(=O)N(Cc2ccccc2)CC2CCOCC2)o1	4.2	2.5
O=C(CN1CCN(C2CCS(=O)(=O)C2)CC1)Nc1ccc(F)cc1F (centres undefined)	5.5	7.2
Cc1ccc(-n2c(C)cc(/C=C/[N+](=O)[O-])c2C)cc1I	-0.3	6.2
O=S(=O)(c1cccc2nonc12)N1CCCn2cncc2C1	6.0	-4.0
CCc1ccccc1NC(=O)CN1CC(=O)N(Cc2ccccc2)C1=S	19.4	19.6
CN(/N=C/C=C/c1ccccc1)c1ccccn1	-11.0	-19.5
Cc1ccc2nc(-c3ccc(NC(=O)c4cc(I)ccc4Br)cc3)oc2c1	-4.0	-10.3
c1ccc(-c2nc(N3CCCCC3)nc3ccccc23)cc1	-3.7	-9.0
c1cncc(Cn2ccnc2-c2cccc(-n3cccn3)c2)c1	30.7	14.5
O=C(CCCSc1nnnn1-c1ccccc1)c1ccc(F)cc1	-5.2	-10.8
C#Cc1ccc(NC(=O)C2(C)CCN2C(=O)c2ccccc2CCc2ccccc2)cc1 (centres undefined)	-3.3	-3.5
O=C(NCc1nnc2n1CCCC2)c1ccc(C2CCCO2)s1 (centres undefined)	-0.7	4.5
Cc1nn(-c2cccc(Cl)c2)c(Cl)c1/C=N\N1C(C)CCCC1C (centres undefined)	-0.1	-0.4
Cc1ccc(-c2nc3cc(C)ccn3c2NC(=O)Cc2ccccc2)cc1	-1.7	4.0
CNc1nc2cnc(Nc3ccccn3)cc2n1-c1cccc(C(F)(F)F)c1	5.9	-2.2
Cc1cccc(-n2c(SCc3ccc(C(=O)N4CCN(c5ccccc5F)CC4)cc3)nnc2-c2cccs2)c1	2.6	7.3
O=C1c2ccccc2C(=O)N1c1ccc(-c2nc3ccccc3c(=O)o2)cc1	-2.1	-12.6
CCCn1ccnc1-c1cccc(NC(=O)C2CCCOC2)c1 (centres undefined)	-23.6&4.6	-26.1&1.4
O=C(c1ccc(C(F)(F)F)nc1)N1CCOC(COc2cccc(C(F)(F)F)c2)C1 (centres undefined)	24.1	19.5
O=C(Nc1cccc(C2SCCCS2)c1)C(=O)NC1CCSc2ccccc21 (centres undefined)	2.9	-0.4
O=C(CSc1nnc(CNC(=O)c2c(F)cccc2Cl)n1-c1ccc([N+](=O)[O-])cc1)Nc1nc2ccccc2s1	-1.4	8.3
O=C1NC(=S)N/C1=C\c1ccc(N2CCOCC2)cc1	-2.2	6.3
Carrying on:
SMILES	NPYLR7 ag	NPYLR7 ag max-min
CC(CNC(=O)N1CCC(Oc2cccnc2)C1)c1ccsc1 (centres undefined)	6.4	5.9
CCN(C(=O)CCc1csc(C)n1)C(C)c1ccc(F)cc1 (centres undefined)	0.1	-0.1
CCOc1ccc(NC(=O)c2cccnc2Nc2cccc(Cl)c2)cc1	-6.8	-12.5
CCS(=O)(=O)Oc1ccc(Cl)cc1CN(Cc1ccco1)C(=O)COC	20.2	24.2
Cc1cc(C)nc(NS(=O)(=O)c2ccc(N)cc2)n1	0.0&-2.6	-3.0&-6.9
Cn1c(=O)c2c(ncn2CC(=O)OCC2CCCCO2)n(C)c1=O (centres undefined)	10.7	8.1
O=C(c1ccc2c(c1)OCO2)N1Cc2cnn(CCO)c2C1	4.0	-0.2
Nc1cc(=O)[nH]c(SCc2ccc(Cl)cc2Cl)n1	16.0	15.3
COC(=O)C(C)n1cnc2c(nnn2-c2cccc(OC)c2)c1=O (centres undefined)	7.1	5.3
Cc1sc2nc(CCc3ccccc3)nc(N3CCN(S(=O)(=O)/C=C/c4ccccc4)CC3)c2c1C	-1.7	2.3
Cc1cc(NC(=O)CN(C)C(=O)c2[nH]c3c(c2C)C(=O)CC(C)(C)C3)no1	10.7	8.5
CCC(C)N(Cc1ccncc1)Cc1ccc2c(C)cc(=O)oc2c1 (centres undefined)	-3.3	-8.7
Cn1c(SCc2nc3ccccc3o2)nnc1-c1ccco1	-3.3	4.2
CCC(C(=O)NC1CCN(c2ccccc2C(=O)NCC2CCCO2)CC1)c1ccccc1 (centres undefined)	6.7	4.0
COc1ccc(Cl)cc1CN1C(=O)C(C)ON=C1c1ccco1 (centres undefined)	-3.4	-5.4
CS(=O)(=O)N(CC(=O)N1CCN2CCCC2C1)c1cccc(F)c1 (centres undefined)	8.3	-1.6
CC1CN2C(=O)CN(C(=O)c3cc(F)ccc3C(F)(F)F)CC2c2ccccc21 (centres undefined)	2.3	0.6
CCC(Nc1cccc(OC)c1)C(=O)N(C)Cc1n[nH]c2c1CCCC2 (centres undefined)	1.8	-2.0
CC1(C(=O)NNC(=O)C2(C)CC2Br)CC1Br (centres undefined)	4.2	2.2
CN(Cc1ccc(C(=O)Nc2ccc3c(c2)CCC3=O)cc1)C1CCOCC1	-3.4	-4.3
Cc1cccc(Cn2cc(SC(=N)N)c3ccccc32)c1	-8.1	-13.0
COC(=O)c1cc2n(n1)CCN(C(=O)c1ccc(Cl)s1)C2	-6.6	-17.7
Cc1ccc(-c2cc3c(=O)n(CC(=O)Nc4cc(Cl)ccc4C)ccn3n2)cc1	2.8	1.3
Cc1ccc2c(c1)NC(c1cccc([N+](=O)[O-])c1)C1C(=O)CC(C)(C)CC1=N2 (centres undefined)	-0.3	-1.5
CCOC(=O)N1CCN(C2CCCN(C(=O)c3cc(C)nc(C)n3)C2)CC1 (centres undefined)	6.8	1.1
CCCCNc1c(N)n(CCC)c(=O)[nH]c1=O	2.3	8.5
Cc1cccc(-n2ccnc2SCC(=O)Nc2sccc2C#N)c1	1.5	0.8
O=C(N/N=C\c1c[nH]c2ccccc12)c1cc(-c2cc(Cl)cc(Cl)c2)n[nH]1	-0.3	3.7
O=S(=O)(Nc1nc2ccccc2nc1-[n+]1ccccc1)c1cccs1	6.8	9.8
CC(C)(C)S(=O)(=O)Cc1ccc(N)cc1	6.6	4.1
CCOC(=O)C(C)(C)c1ccc(OC)cc1	-4.4	-6.2
CCOc1ccccc1-n1c(=O)[nH]c2c(C(N)=O)nc(-c3cccc(OC)c3)nc21	-4.6	-5.9
Cc1noc(C)c1CN(C)Cc1nc[nH]c1C	7.4	4.4
O=c1c2ccccc2nc(SCc2ccc([N+](=O)[O-])cc2)n1-c1cccnc1	-6.3	14.2
O=C(Nc1ccnn1C1CCN(C(=O)c2ccc3c(c2)OCO3)CC1)C1CC1	1.8	-1.0
COC(=O)c1sccc1S(=O)(=O)N1CCCC1c1ccc(C)cc1 (centres undefined)	9.8	5.2

Whole records, looked up by structure. Order of screens: NPYLR7 ag | NPYLR7 ag max-min
CCOC(=O)N1CCN(C2CCCN(C(=O)c3cc(C)nc(C)n3)C2)CC1 (centres undefined) in the list: 6.8 | 1.1
CC(C)(C)S(=O)(=O)Cc1ccc(N)cc1 in the list: 6.6 | 4.1

Continuation:
SMILES	NPYLR7 ag	NPYLR7 ag max-min
CCC(C)N(Cc1csc(COc2ccccc2C(C)C)n1)C(=O)Cc1ccccc1 (centres undefined)	5.6	12.3
COCCCN1C(=O)N(Cc2ccc(OC)cc2)C(=O)C12CCN(Cc1cc3ccccc3[nH]1)CC2	21.5	7.5
COc1cc(CNC(=O)c2cccc3cccnc23)ccc1OC(F)F	2.1	-2.0
Cc1nc(C(=O)NC(c2ccccc2)c2nnc(N)s2)cs1 (centres undefined)	2.3	0.4
CCCCc1ccc(N=C2NN=C(c3ccc4c(c3)CC(=O)N4)CS2)cc1	1.7	-2.7
COc1ccc(CNc2nnc(SC(C)C#N)s2)cc1 (centres undefined)	-1.9	2.7
Cc1cc(C(O)c2ncc(-c3cccc(F)c3)[nH]2)ccc1F (centres undefined)	1.3	2.7
Cc1ccc(S(=O)(=O)N(C)CC(=O)OC(C)C(=O)NC2CC2)cc1 (centres undefined)	1.0	20.2
FC(F)Sc1ccc(NC(=S)N2CCCC2)cc1	0.9	1.1
Cc1noc(C)c1S(=O)(=O)NC(=O)C1(C)CCN1C(=O)Cc1ccc(Cl)cc1Cl (centres undefined)	6.3	1.2

Of the compounds above, these contain an aryl thioether with sulfur outside any ring:
SMILES	NPYLR7 ag	NPYLR7 ag max-min
c1cnc(SCc2nc(-c3cccs3)no2)nc1	0.0	6.7
Cc1ccc2nc(SCc3ccc(C(F)(F)F)cc3)nc(=O)n2c1	1.1	0.0
Cn1c(=O)c2c(nc(N3CCOCC3)n2CCSc2ncccn2)n(C)c1=O	-4.1	-5.4
O=C(CCCSc1nnnn1-c1ccccc1)c1ccc(F)cc1	-5.2	-10.8
Cc1cccc(-n2c(SCc3ccc(C(=O)N4CCN(c5ccccc5F)CC4)cc3)nnc2-c2cccs2)c1	2.6	7.3
O=C(CSc1nnc(CNC(=O)c2c(F)cccc2Cl)n1-c1ccc([N+](=O)[O-])cc1)Nc1nc2ccccc2s1	-1.4	8.3
Nc1cc(=O)[nH]c(SCc2ccc(Cl)cc2Cl)n1	16.0	15.3
Cn1c(SCc2nc3ccccc3o2)nnc1-c1ccco1	-3.3	4.2
Cc1cccc(-n2ccnc2SCC(=O)Nc2sccc2C#N)c1	1.5	0.8
O=c1c2ccccc2nc(SCc2ccc([N+](=O)[O-])cc2)n1-c1cccnc1	-6.3	14.2
COc1ccc(CNc2nnc(SC(C)C#N)s2)cc1 (centres undefined)	-1.9	2.7
FC(F)Sc1ccc(NC(=S)N2CCCC2)cc1	0.9	1.1

Only part of the results is shown, so the mix of outcomes need not match the whole.
